eIF4H inh: inhibitors of RNA binding by human eIF4H. eIF4H fluorescence polarization binding assay. inhibition, % at 35 µM. 290,000 tested, 0.94% active;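 active means 50% or more with normal probe brightness, or confirmed in later tests; inconclusive means above 50% with abnormal brightness, or retests that disagree; inactive means below 50% or failed in later tests; about a fifth of its hits are not listed in these tables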;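 further: calls also rest on retests at 20 µM and on dose response follow-up; 0% = protein and probe with vehicle and 100% = probe without protein; strong numbers were not always called active; many hits fall short of the cut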
UUG fidelity: yeast start codon fidelity modulation; S. cerevisiae UUG-firefly luciferase reporter, luminescence/redox ratio; 350,000 tested, 0.13% active; activity score, % at 18.7 µM;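 active means replicate mean at a twofold rise or more, about +100% in these data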;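 further: firefly luciferase made from a UUG start codon reports start codon fidelity; reporter light over untreated wells divided by growth signal over untreated wells; some hits fall short of that in this replicate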
Rce1 inhib: blocks yeast Ras-converting enzyme. Q03530. AID 2563. calls only. 290,000 tested, 0.27% active. yeast membranes, quenched prenylated peptide cleavage fluorescence;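 active means fall in fluorescence gain of 50% or more versus controls, with final raw signal at or below 3038400; inconclusive means same 50% fall but final raw signal above 3038400; inactive means fall in fluorescence gain under 50%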;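 further: plate controls were neutral control wells for no effect and wells lacking membranes for full effect; tested at 10 µM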
Target sequence (Q03530 whole entry, looked up): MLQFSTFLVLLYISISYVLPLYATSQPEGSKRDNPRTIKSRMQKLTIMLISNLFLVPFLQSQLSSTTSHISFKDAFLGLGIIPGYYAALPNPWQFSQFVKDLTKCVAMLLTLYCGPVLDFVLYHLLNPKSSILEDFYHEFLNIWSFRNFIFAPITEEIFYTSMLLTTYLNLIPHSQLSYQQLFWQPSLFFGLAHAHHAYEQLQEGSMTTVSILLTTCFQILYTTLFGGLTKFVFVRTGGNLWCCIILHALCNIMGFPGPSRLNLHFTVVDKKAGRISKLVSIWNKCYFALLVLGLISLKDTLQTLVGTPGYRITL
PABP FP inh: blocks human PABP binding to poly(A) RNA | inhibition, % at 35 µM | 290,000 tested, 1% active | fluorescence polarization | P11940;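 active means 50% or more with normal probe brightness, or confirmed in later tests; inconclusive means above 50% with abnormal brightness, or retests that disagree; inactive means below 50% or failed in later tests; about a fifth of its hits are not listed in these tables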;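 further: calls also rest on retests at 20 µM and on dose response follow-up; controls were probe without protein and protein plus probe with vehicle; some compounds called inactive have numbers as strong as hits; many hits fall short of the cut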
Target sequence (P11940 whole entry, looked up): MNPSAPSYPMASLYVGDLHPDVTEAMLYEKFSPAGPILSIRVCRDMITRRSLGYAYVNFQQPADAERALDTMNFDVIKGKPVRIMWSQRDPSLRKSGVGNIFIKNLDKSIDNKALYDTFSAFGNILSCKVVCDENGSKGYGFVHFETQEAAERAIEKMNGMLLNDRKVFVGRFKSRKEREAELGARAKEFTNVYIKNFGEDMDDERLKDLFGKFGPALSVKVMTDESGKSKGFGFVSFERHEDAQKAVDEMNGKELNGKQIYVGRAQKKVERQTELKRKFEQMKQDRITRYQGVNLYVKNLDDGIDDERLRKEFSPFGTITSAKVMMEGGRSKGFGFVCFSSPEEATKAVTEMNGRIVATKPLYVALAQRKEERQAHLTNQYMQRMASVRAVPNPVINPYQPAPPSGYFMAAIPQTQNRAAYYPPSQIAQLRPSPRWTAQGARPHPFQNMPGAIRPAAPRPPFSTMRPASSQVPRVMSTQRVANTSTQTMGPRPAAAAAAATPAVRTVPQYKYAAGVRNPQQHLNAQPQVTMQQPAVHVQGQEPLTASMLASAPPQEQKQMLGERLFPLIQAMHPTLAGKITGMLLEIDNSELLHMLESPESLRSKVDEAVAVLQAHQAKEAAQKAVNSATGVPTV
CSC inhib: blocks cancer stem cells. cancer stem cell-like cells viability, luminescence. inhibition, % at 7.5 µM. 300,000 tested, 1.1% active. AID 2717;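 active means mean at 75% or more and at least half the replicates too; inconclusive means mean and replicates disagree; tested in HMLE shEcad cells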;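 further: 0% = median of negative and 100% = median of positive control wells; the first replicate is given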
Env fusion inh: inhibitors of HIV Env-mediated cell fusion | inhibition, % at 12.3 µM | HeLa-JRFL Env/CEM21 cell fusion, luciferase | 360,000 tested, 1.1% active;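 active means mean replicate inhibition score of at least 50 and every replicate individually at or above 50; inconclusive means only one of the two criteria met; inactive means mean below 50 and not all replicates reaching 50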;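 further: 0% = plate neutral controls and 100% = maraviroc near 300 nM; one replicate is shown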
MT1-MMP act inh: inhibitors of human MT1-MMP activation; P50281; HT1080 RFP-PRO-GFP cells, GFP/RFP ratio fluorescence, overnight; percent of plate control window, DMSO zero; GFP/RFP ratio change, % at 20 µM; 360,000 tested, 0.061% active; AID 651647;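 active means GFP/RFP ratio change of at least 30% with cell ATP level not reduced by more than half and red fluorescence within 50% of control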; further: strong numbers were not always called active
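system = RFP-PRO-GFP reporter HT1080 cells | dosing = 20 µM single dose, 1% DMSO | timing = overnight cell settling, then overnight compound exposure, 37 °C, 5% CO2 | read-out basis = GFP/RFP fluorescence ratio | controls = DMSO and RFP-L50D-GFP cell wells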
eIF4H inh retest: also measured in eIF4H inh; calls as there; inhibition, %; compound at 20 µM; confirmation average;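 mean of two retest wells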
PABP FP inh retest: recorded beside PABP FP inh, whose call it bears; inhibition, %; compound at 20 µM; confirmation repeats;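 mean of two retest wells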
MT1-MMP act inh RFP: also measured in MT1-MMP act inh; calls as there; RFP signal change, %; measured here: RFP expression control read;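 0 = vehicle wells; hits needed this value within 50% of zero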
An asterisk follows results filed as active; i = inactive; ? = inconclusive; · = not tested or not shown.

SMILES	eIF4H inh	UUG fidelity	Rce1 inhib	PABP FP inh	CSC inhib	Env fusion inh	MT1-MMP act inh	MT1-MMP act inh RFP	others
C#CCOC(=O)C1C2C=CC(C2)C1C(=O)O (configuration not stated)	-11	·	i	-3	-14	·	6	3
COc1ccc([C@H]2[C@@H](C#N)[C@H](C#N)N3CCCN23)cc1	7	-16	i	0	-16	-4	-3	-3
Cn1ccnc1SCC(=O)c1ccc(F)cc1	·	-7	i	·	3	1	3	0
CC(C)(C)c1ccc(C(=O)N2CCN(CCNC(=O)C(=O)NCc3ccccc3)CC2)cc1	59	-2	i	10	-6	10	1	-1	eIF4H inh retest=-23;PABP FP inh retest=12
COc1nccc(-c2ccc(F)cc2)c1C#N	-13	-27	i	-4	-14	-12	2	2
Cc1nc2cc(Cl)c([N+](=O)[O-])cc2s1	-10	·	i	-2	-14	28	1	7
Cc1ccc(S(=O)(=O)CCC(=O)OCC(=O)c2ccc(F)cc2)cc1	·	1	i	·	-1	-3	-1	5
CCOC(=O)c1c(C)[nH]c(C)c1S(=O)(=O)N(C)Cc1ccco1	0	2	i	4	-15	0	4	4
COc1ccc(S(=O)(=O)Cc2ccc(C(=O)NC(C)C)o2)cc1	-6	-15	i	-18	-1	15	0	4
CCOC(=O)c1oc2ccccc2c1CN1CCN(C)CC1	-8	2	i	-12	-8	·	4	2
O=C(NNC(=S)NCC1CCCO1)c1cccc(S(=O)(=O)N2CCOCC2)c1 (configuration not stated)	-5	-32	i	5	·	6	4	1
Cc1nn(-c2ccccc2)nc1CNC(=O)CC(C)(C)C	0	·	i	-5	-9	10	-2	-2
O=C(Nc1ccc(Cl)cc1)c1cncs1	-4	-26	i	-5	-6	-26	0	2
CC(=O)Nc1cccc(C(=O)OCC(=O)Nc2c(C)nn(-c3ccccc3)c2C)c1	·	12	i	·	-10	17	0	1
N/C(Cn1cncn1)=N\OC(=O)c1ccc(Cl)cc1Cl	-7	·	i	3	-4	-6	2	-1
COc1ccc(OC)c(-c2[nH]nc3c2C(c2ccco2)C(C#N)=C(N)O3)c1 (configuration not stated)	7	-19	i	15	11	·	-4	-1
Cc1ccc(C(=O)NCCCNCCCNC(=O)c2ccc(C)nc2)cn1	-2	-12	i	-11	1	·	-4	1
CN(CC(=O)Nc1ccccc1Br)C(=O)c1ccc(-c2ccc(Cl)cc2)o1	-1	-25	i	-3	50	2	2	-2
Cc1nc2cc(NC(=O)Nc3cccc(F)c3)ccc2n1C	-2	·	i	-1	4	-46	-5	-5
O=C(CNC(=O)C12CC3CC(CC(C3)C1)C2)N1CCCC(C(F)(F)F)C1 (configuration not stated)	·	-6	·	·	·	21	0	2
O=C(CN1C(=O)/C(=C/c2ccccc2F)Sc2ccccc21)N1CCN(c2ccccn2)CC1	1	·	i	16	6	3	-2	2
C=CCn1c(=O)c(C(=O)NC(C)c2ccccc2)c(O)c2ccccc21 (configuration not stated)	-6	8	i	-3	4	-1	-2	2
CSc1nnc(CCCCCNC(=O)OC(C)(C)C)o1	-8	-8	i	-5	3	4	3	1
Cc1cc(NC(=O)COc2ccccc2C)ccc1NC(=O)c1ccco1	-4	-15	i	-5	7	-11	0	-2
COC(=O)c1c(C)[nH]c(C=Nc2ccc(OC)cc2)c1C	1	6	i	8	-6	-17	1	3
COc1ccc(NC(=O)c2cc3ccccc3[nH]2)cc1	-3	-14	i	3	18	-64	6	-4
Cn1c(=O)c2c(O)c(Cc3ccccc3)c(=O)[nH]c2n(C)c1=O	-1	-7	i	3	-2	15	-5	-4
COCCNC(=O)Cn1nc(-c2ccccc2F)ccc1=O	-13	-7	i	-2	·	8	-1	5
CN(CC(=O)Nc1ccc(N2CCOCC2)cc1)C(=O)CCCOc1ccc(Cl)cc1Cl	·	·	i	·	-4	?	-4	-10
CCOc1ccc2c(CC)cc(=O)oc2c1OCC	-12	-15	i	1	-19	·	13	11
O=C(Nc1ccc(OC(F)(F)F)cc1)Nc1cccc([N+](=O)[O-])c1	-6	-1	i	9	·	-72	-10	-35
Cc1ccc(S(=O)(=O)N2CCC(C(=O)NNC(=O)c3ccncc3)CC2)cc1	32	-16	i	2	-2	-4	3	3
CCOC(=O)Cc1nnc(Nc2cccc(C)c2)c2ccccc12	-9	·	i	1	-16	-88	0	1
COc1ccc(/C=N\NC(=O)c2ccc(Cn3cc(Br)c([N+](=O)[O-])n3)o2)c(OC)c1C	-6	·	i	6	-8	26	-3	-4
COCCNC(=O)c1cc2nc(-c3ccccc3)cc(C)n2n1	5	·	i	0	-12	19	0	4
O=C(NN1CCN(Cc2ccccc2)CC1)c1ccc(Cl)cc1	-8	-7	i	?	-3	0	0	-1
O=C1NC2=C(C(=O)CCC2)C(c2cccc([N+](=O)[O-])c2)N1 (configuration not stated)	3	10	i	18	·	3	1	2
OC(c1cc(-c2ccc(Cl)cc2)nc2ccccc12)C1CCCCN1 (configuration not stated)	-6	-20	i	-1	116*	5	-8	-5
CSc1cccc(NC(=O)CN(c2cccc(C)c2)S(C)(=O)=O)c1	-18	-8	i	1	-3	-24	-1	-2
CCn1c(SCC(=O)Nc2ccc3c(c2)OCCO3)nnc1-c1ccncc1	-7	-4	i	-8	-12	-12	0	2
O=c1c(/C=N/Nc2ccccc2)c(Sc2nnnn2-c2ccccc2)nc2ccccn12	?	-20	·	?	·	-49	-150	31
Cc1occc(=O)c1OCc1ccc(F)cc1	-10	-5	i	4	-4	1	-1	2
CN(CCOc1ccccc1)C(=O)c1ccc(OC2CCN(C(=O)C3CC3)CC2)cc1	-8	3	i	3	·	5	7	-28
O=C(Nc1cnc2ccccc2c1)C1COc2ccccc2O1 (configuration not stated)	2	-7	i	7	-7	·	0	1
FC(F)(F)c1ccc(/C=N/n2c(C3CCCCC3)n[nH]c2=S)cc1	-13	-36	i	-1	37	14	1	-1
CN(C)c1ccc(CN(CC2CCCO2)C(=O)c2cccs2)cc1 (configuration not stated)	-14	-9	i	-19	4	4	-2	-1
Cc1csc(NC(=O)C2CCN(C(=O)CSc3nnc(C)n3Cc3ccccc3)CC2)n1	9	-12	i	2	-5	19	6	-1
Cc1ccc(S(=O)(=O)NC(Cc2ccc(Cl)cc2)C(=O)O)cc1 (configuration not stated)	0	-6	i	10	-5	-4	1	4
O=C(OCC(=O)N1CCc2ccccc21)c1cccnc1	-7	5	i	1	·	-178	3	7
COC(=O)CSC1=C(C#N)C(c2sccc2C)CC(=O)N1 (configuration not stated)	1	2	i	-3	-10	·	5	-6
COc1ccccc1N=C1SCC(=O)N1c1ccccc1OC	-5	·	i	0	-6	·	5	5
COc1ccccc1N(CC(=O)Nc1c(C)n(C)n(-c2ccccc2)c1=O)S(=O)(=O)c1ccccc1	·	-12	·	·	·	0	-3	2
CC(=O)N1CCc2c(sc(NC(=O)Cc3ccccc3)c2C#N)C1	·	-1	i	·	-3	-14	-1	3
CCOc1ccc(-n2ccnc2SCC(=O)NCc2ccc3c(c2)OCO3)cc1	2	-14	i	-5	3	·	4	1
C=CCN(c1ccccc1C(=O)O)S(=O)(=O)c1ccc(C)cc1	-10	·	i	-8	-2	-42	-1	1
CCCN1C(=O)C(Cc2nc3ccccc3c(=O)n2C)c2ccccc21 (configuration not stated)	1	-4	·	-7	7	-36	-7	3
CCCCCC1CCC(c2nnc(SCC(C)=O)o2)CC1 (configuration not stated)	0	-16	i	26	·	2	-2	1
COCOCCn1cc(CN2CCS(=O)(=O)N(Cc3ccc(-c4cccc(CO)c4)cc3)C(C(C)C)C2=O)nn1 (configuration not stated)	·	-1	·	·	·	-6	5	2
Nc1nc2c(s1)CC(c1ccccc1)CC2 (configuration not stated)	0	0	i	-1	-2	·	3	-10
CC(=O)Nc1c2c(nn1-c1cccc(C)c1)CSC2	-1	-11	i	0	-10	6	1	6
New compounds follow.
SMILES	eIF4H inh	UUG fidelity	Rce1 inhib	PABP FP inh	CSC inhib	Env fusion inh	MT1-MMP act inh	MT1-MMP act inh RFP	others
O=C(NCc1ccc(F)cc1)c1cc(-c2cccs2)on1	-4	-19	i	-9	9	-10	0	-3
CCN(CC(=O)Nc1ccccc1C(F)(F)F)C(=O)Cc1ccc2c(c1)CCC2	·	2	·	·	·	16	-1	-9
COc1cc(CN2CCN(c3cccc(C)c3C)CC2)cc(Br)c1O	1	5	i	11	57	-43	3	-2
COC(=O)NC1CSCC1OC(=O)CCN1C(=O)c2ccccc2C1=O (configuration not stated)	5	-7	i	-5	-5	·	1	5
COC(=O)CSc1ncnc2c1sc1nc(N3CCOCC3)c3c(c12)CCCC3	-8	-18	i	4	13	-8	-1	-4

Copied from above for reference:
SMILES	eIF4H inh	UUG fidelity	Rce1 inhib	PABP FP inh	CSC inhib	Env fusion inh	MT1-MMP act inh	MT1-MMP act inh RFP	others
Cc1ccc(S(=O)(=O)NC(Cc2ccc(Cl)cc2)C(=O)O)cc1 (configuration not stated)	0	-6	i	10	-5	-4	1	4
O=C(OCC(=O)N1CCc2ccccc21)c1cccnc1	-7	5	i	1	·	-178	3	7
COC(=O)CSC1=C(C#N)C(c2sccc2C)CC(=O)N1 (configuration not stated)	1	2	i	-3	-10	·	5	-6
COc1ccccc1N=C1SCC(=O)N1c1ccccc1OC	-5	·	i	0	-6	·	5	5
COc1ccccc1N(CC(=O)Nc1c(C)n(C)n(-c2ccccc2)c1=O)S(=O)(=O)c1ccccc1	·	-12	·	·	·	0	-3	2
CC(=O)N1CCc2c(sc(NC(=O)Cc3ccccc3)c2C#N)C1	·	-1	i	·	-3	-14	-1	3
CCOc1ccc(-n2ccnc2SCC(=O)NCc2ccc3c(c2)OCO3)cc1	2	-14	i	-5	3	·	4	1
C=CCN(c1ccccc1C(=O)O)S(=O)(=O)c1ccc(C)cc1	-10	·	i	-8	-2	-42	-1	1
CCCN1C(=O)C(Cc2nc3ccccc3c(=O)n2C)c2ccccc21 (configuration not stated)	1	-4	·	-7	7	-36	-7	3
CCCCCC1CCC(c2nnc(SCC(C)=O)o2)CC1 (configuration not stated)	0	-16	i	26	·	2	-2	1
COCOCCn1cc(CN2CCS(=O)(=O)N(Cc3ccc(-c4cccc(CO)c4)cc3)C(C(C)C)C2=O)nn1 (configuration not stated)	·	-1	·	·	·	-6	5	2
Nc1nc2c(s1)CC(c1ccccc1)CC2 (configuration not stated)	0	0	i	-1	-2	·	3	-10
CC(=O)Nc1c2c(nn1-c1cccc(C)c1)CSC2	-1	-11	i	0	-10	6	1	6
O=C(NCc1ccc(F)cc1)c1cc(-c2cccs2)on1	-4	-19	i	-9	9	-10	0	-3
CCN(CC(=O)Nc1ccccc1C(F)(F)F)C(=O)Cc1ccc2c(c1)CCC2	·	2	·	·	·	16	-1	-9

An excerpt (hit frequency here may not be typical).
